2A Renilla = FMDV 2A StopGo reporter, Renilla signal; HEK cells with a luciferase reporter of 2A StopGo recoding; Potency, µM (highest dose often 57.5 µM), for inactives: top-dose signal change, negative = less light; 0.32% of 120,000 active; AID 1745857; active means well fitted falling curve with a large enough effect; inconclusive means small, poorly fitted or top-dose-only effect; inactive means no such curve, though single readings can be large or run the other way; note: nearly all actives have a fitted effect of over 55% in size; overnight with compound
StopGo FLuc = FMDV 2A StopGo reporter, firefly signal; HEK cells with a luciferase reporter of 2A StopGo recoding; Potency, µM (series often up to 57.5 µM), for the others: at the top dose signal change, negative = less light; 0.23% of 120,000 active; active = well fitted falling curve with a large enough effect; inconclusive = small, poorly fitted or top-dose-only effect; inactive = no such curve, though single readings can be large or run the other way; note: nearly all actives have a fitted effect of over 60% in size; overnight with compound
Active calls of the source: *; ? = inconclusive; [ ] = another dose, or the depositor's remark. % is set by controls: 0 for no effect and ±100 for the full control effect; potency is the fitted concentration of half-maximal effect. A portion of the library; the hit share may differ from the screen's.

Values run as follows: 2A Renilla	StopGo FLuc
CCC(=O)N1CCc2cc(Br)cc(S(=O)(=O)N3CCCC(C(=O)NCc4ccc(C)cc4)C3)c21 (stereo unspecified)
→ 284.0%[activator]	-18.0%
O=C(COc1ncnc2ccc(Br)cc12)NCc1ccccc1
→ 10.4%	6.7%
COc1ccc(CCn2c(=O)c3cccnc3n(CC(=O)Nc3ccc(C)cc3C)c2=O)cc1OC
→ -4.8%	-16.5%
Cc1cccc(NC(=O)c2cc3cc(Br)ccc3oc2=O)c1
→ 1.7%	16.6%
CC(=O)N(Cc1cccnc1)c1nc2c(C)c(C)ccc2s1
→ -1.1%	-0.7%
COc1ccc(-c2cc(C(F)(F)F)nc(S(C)(=O)=O)n2)cc1
→ ?	-32.4%
CN(CC(=O)N1c2ccccc2NC(=O)CC1C(F)(F)F)Cc1ccccc1Cl (stereo unspecified)
→ 0.3%	-6.8%
Cc1nc2cc(NC(=O)COc3cccc(Br)c3)ccc2o1
→ 4.7%	0.0%
O=C(Nc1nc2ccccc2s1)C1CCCc2ccccc21 (stereo unspecified)
→ 14.6%	86.7%[activator]
CCCCCC/C=N/NC(=O)Cc1cccc2ccccc12
→ 8.3%	1.9%
Cc1ccc(NC(=O)CCc2ncc(-c3ccc(F)cc3)o2)c(C)c1
→ -0.3%	20.0%
Cc1nc2c(C(=O)NCc3ccccc3Cl)c[nH]n2c(=O)c1Cc1cccc(Cl)c1
→ 8.2%	-14.1%
S=C1NC(=S)/C(=C/C=C/c2ccco2)S1
→ 0.2%	3.8%
COc1ccc(Nc2oc(/C=C/c3ccc(OC)c(OC)c3)nc2C#N)cc1
→ -5.6%	-7.1%
O=C(Nc1nc2n(n1)C(c1ccc(F)cc1)C=C(c1ccccc1)N2)c1ccco1 (stereo unspecified)
→ 98.4%[activator]	95.5%[activator]
CCC(C(=O)Nc1ccccc1OC)n1c(C(=O)OC)cc2sc(Cl)cc21 (stereo unspecified)
→ -7.5%	0.0%
Cc1ccc(C=Nc2ccc(N=Cc3ccc(C)s3)cc2)s1
→ -5.9%	46.2%[activator]
O=C(Nc1cc(-c2cccc(Cl)c2)nn1-c1ccccc1)c1ccccc1F
→ 6.5%	22.4%
COc1ccc(Cn2c(=O)[nH]c3cc(C(=O)N4CCN(c5cccc(Cl)c5)CC4)ccc3c2=O)cc1
→ -7.0%	-12.0%
Cc1nc(/C=C/C(=O)N2CCN(c3cccc(C(F)(F)F)c3)CC2)cs1
→ 20µM*	?
COc1ccc(C)cc1NC(=O)C1CCCN(S(=O)(=O)c2ccc3[nH]c(=O)ccc3c2)C1 (stereo unspecified)
→ -8.9%	-14.1%
O=C(COC(=O)CCSc1ccccc1Cl)Nc1ncc(Cl)cc1Cl
→ -10.5%	-0.6%
Cc1ccc(NC(=O)C(=O)NCC2(c3ccccc3)CCCC2)cc1C
→ -3.2%	-9.1%
O=S(=O)(c1cccs1)N1CCN(c2ccc(Cl)cc2)CC1
→ -7.5%	-12.7%
CN(CC(=O)Nc1ccc(F)c(Cl)c1)Cc1nc2ccccc2c(=O)[nH]1
→ 16.1%	10.7%
CSc1ccc(C2NC(=S)NC3=C2CCc2ccccc23)cc1 (stereo unspecified)
→ 8.3%	10.0%
CCC1CCC(C(=O)Nc2ccc3ccccc3c2)CC1 (stereo unspecified)
→ 41.0%[activator]	235.0%[activator]
COc1ccc(C2C=C(c3ccccc3)Nc3nc(NS(=O)(=O)c4ccc(Cl)cc4)nn32)cc1 (stereo unspecified)
→ -4.0%	0.0%
COc1ccc(CCN2C(=O)N(c3ccc(C)cc3)C(=O)C2CC(=O)Nc2ccc(OC)cc2)cc1 (stereo unspecified)
→ 78.1%[activator]	-12.4%
Cc1cccc(NC(=O)C23CC4CC(CC(Cl)(C4)C2)C3)c1
→ 21.8%	4.2%

Part of the list above, as tab-separated lines:
compound	2A Renilla	StopGo FLuc
COc1ccc(Nc2oc(/C=C/c3ccc(OC)c(OC)c3)nc2C#N)cc1	-5.6%	-7.1%
O=C(Nc1nc2n(n1)C(c1ccc(F)cc1)C=C(c1ccccc1)N2)c1ccco1 (stereo unspecified)	98.4%[activator]	95.5%[activator]
CCC(C(=O)Nc1ccccc1OC)n1c(C(=O)OC)cc2sc(Cl)cc21 (stereo unspecified)	-7.5%	0.0%
Cc1ccc(C=Nc2ccc(N=Cc3ccc(C)s3)cc2)s1	-5.9%	46.2%[activator]
O=C(Nc1cc(-c2cccc(Cl)c2)nn1-c1ccccc1)c1ccccc1F	6.5%	22.4%
COc1ccc(Cn2c(=O)[nH]c3cc(C(=O)N4CCN(c5cccc(Cl)c5)CC4)ccc3c2=O)cc1	-7.0%	-12.0%
Cc1nc(/C=C/C(=O)N2CCN(c3cccc(C(F)(F)F)c3)CC2)cs1	20µM*	?

The list goes on.
Values run as follows: 2A Renilla	StopGo FLuc
O=C(NNC(=O)C1CCCC1)c1ccc(CSc2ccc(Cl)cc2)cc1
→ -2.5%	-0.7%
CC(=O)Oc1cccc2c1C(=O)c1c(OC(C)=O)cc(C(=O)O)cc1C2=O
→ 29.9%	3.6%[11.5 µM]
COc1ccc(NC(=O)Cn2c(=O)oc3cc(S(=O)(=O)NC(C)C)ccc32)cc1OC
→ 69.3%[activator]	-8.5%
CCOC(=O)Cn1c(=O)n(-c2ccccc2OC)c2nc(-c3ccc(C(C)C)cc3)nc(C(N)=O)c21
→ 7.7%	20.3%
N#Cc1ccc(N2CCC(C(=O)Nc3ncc(Cc4ccccc4)s3)CC2)nc1
→ -27.4%	-13.2%
COC(=O)C1=C(N)N(c2ccccc2C(F)(F)F)C2=C(C(=O)CC(C)(C)C2)C1c1cccnc1 (stereo unspecified)
→ -3.5%	4.1%
O=c1oc2ccccc2c(N2CCCC2)c1NS(=O)(=O)c1ccc(Br)cc1
→ 24.3%	1.3%
CCOC(=O)c1c(NC(C)=O)sc2c(OCc3ccc(F)cc3)c(Br)ccc12
→ 5.9%	9.6%
CCn1c(CNC(=O)c2ccc(OC)cc2)nnc1SCC(=O)Nc1cccc(C)c1
→ -2.5%	16.9%
Cc1nc2cc(NC(=O)COc3ccc(Cl)cc3Cl)ccc2o1
→ 10.5%	16.0%
CCOC(=O)c1c(NC(=O)CSc2cn(CCNC(=O)c3ccccc3F)c3ccccc23)sc2c1CCCC2
→ -4.0%	26.8%
O=C(NCc1ccc(Cn2cccn2)cc1)c1cn[nH]c1-c1ccc(F)cc1
→ ?	-11.7%
Cc1ccc(NC(=O)Cn2nc(C(N)=O)c3ccccc3c2=O)cc1
→ 7.0%	88.7%[activator]
COCCn1c(N2CCN(CCO)CC2)nc2c1c(=O)[nH]c(=O)n2C
→ -4.8%	-2.8%
CCSc1nnc(-c2nn(Cc3ccccc3)c(=O)c3ccccc23)o1
→ 53.0%[activator]	0.0%
CCOC(=O)N1CCN(C(=O)CN(c2cc(Cl)ccc2Cl)S(C)(=O)=O)CC1
→ 37.5%	45.1%[activator]
Nc1nccnc1C(=O)NCc1nc2ccccc2s1
→ ?	6.6%
O=C(NCCn1cc(SCC(=O)N2CCCCC2)c2ccccc21)c1cccc(C(F)(F)F)c1
→ ?	?
CCCCCCNC(=O)C1CSCCS(=O)(=O)N1Cc1ccc(C)cc1 (stereo unspecified)
→ 25.6%	0.3%
ClC(=C\c1ccccc1)/C=N/N1CCN(Cc2cccc3ccccc23)CC1
→ 4.9%	3.6%
COc1ccc(-c2onc(C)c2C)cc1S(=O)(=O)NCC1CCN(Cc2ccccc2F)CC1
→ 214.3%[activator]	-9.2%
CC1=C(C(=O)OC2CCCC2)C(c2ccc(Cl)cc2)CC(=O)N1 (stereo unspecified)
→ -0.1%	-21.8%
CCN(CC)C(=O)c1cccc(NC(=O)Cc2nc(-c3ccccc3)oc2C)c1
→ 9.0%	?
CC(=O)CC1(C#N)C(N)=C(C=O)CC1(C#N)C#N (stereo unspecified)
→ 3.0%	8.8%
O=C(NCc1ccco1)c1ccc(Cn2c(SCc3ccc(F)cc3)nc3cccnc32)cc1
→ -15.2%	31.9%[activator]
Cc1ccnc(NC(=O)CCc2ncc(-c3ccc(Cl)cc3)o2)c1
→ 6.2%	99.7%[activator]
O=C(O)c1ccnc(N2CCOCC2)c1
→ 3.4%	10.2%
O=C(Nc1ccc2c(c1)OCO2)c1sc(-c2ccco2)nc1-c1ccccc1
→ 19.1%	21.1%
CC(C)c1nc2oc3c(N(CCO)CCO)ncnc3c2c2c1CCC2
→ 17.1%	26.9%
CCOc1c(I)cc(/C=C2\NC(=O)NC2=O)cc1OC
→ 10.1%	34.4%[activator]

Later entries:
Values run as follows: 2A Renilla	StopGo FLuc
CCN(Cc1ccccc1)C(=O)c1nc(-c2cccc(F)c2)n2c1CCCCC2
→ 19.6%	-15.6%
CC1(C)Cc2ccccc2-c2nc(CN3CCOCC3)[nH]c(=O)c21
→ -5.7%	-9.0%
COc1ccccc1NC(=O)C1CCN(S(=O)(=O)c2ccc3c(c2)oc(=O)n3C)CC1
→ -10.3%	-13.8%
Cc1cc(OC(C)C(=O)NCc2cccnc2)c2c(C)c(C)c(=O)oc2c1 (stereo unspecified)
→ -10.3%	-9.3%
NC(=O)Cc1ccc(C(=O)CSc2ccc3c(c2)OCCCO3)s1
→ 6.6%	0.0%
CCCc1csc(N)c1C(=O)OCC
→ -0.4%	2.1%
O=C(CSc1nc(CN2CCOCC2)nc2ccccc12)NCC1CCCCC1
→ -29.9%	-20.4%
Cc1cccc(C)c1OCc1nc2c3c(ncn2n1)OC1=C(C(=O)CCC1)C3c1ccco1 (stereo unspecified)
→ -23.6%	-32.2%
Cc1ccc(Nc2nc(Nc3ccc(C)c(C)c3)nc(N3CCOCC3)n2)cc1C
→ -3.5%	-29.1%
Nc1c(Cl)cccc1C(=O)OCc1nc(N)c2ccccc2n1
→ 8.8%	135.6%[activator]
O=C(NC1CCCC1)C1(c2ccc(F)cc2)CCCC1
→ -0.7%	-10.5%
C/C(=N/Nc1ccc(S(N)(=O)=O)cc1[N+](=O)[O-])c1ccc(C2CCCCC2)cc1
→ 18.5%	64.2%[activator]
O=C(CCc1nc2ccccc2s1)NC1CCCC(C(F)(F)F)C1 (stereo unspecified)
→ -21.3%	2.9%
COC(=O)[C@]12C[C@H](CC(=O)N3CCOCC3)C(=O)N(Cc3ccco3)C1=C[C@H](COCc1ccccc1)O[C@@H]2C
→ 22.8%	1.3%
Cc1ccc(-c2nc3cc(NC(=O)/C=C/c4ccco4)ccc3o2)cc1
→ -2.9%	147.6%[activator]
C=CCNc1nc(-c2ccc3[nH]c(=O)oc3c2)cs1
→ 99.0%[activator]	259.7%[activator]
O=C(Nc1ccc(S(=O)(=O)Nc2ccccc2)cc1)N1CCCC1
→ 18.8%	-7.6%
CCCN(Cc1ccccc1)Cc1cc(=O)oc2ccc(C)cc12
→ 3.4%	-3.1%
CCOc1ccc(C2=C(C(C)=O)Sc3nnc(C)n3N2C(C)=O)cc1
→ -9.3%	29.2%
Cc1ccc(OCC(=O)OCc2cc(=O)n3nc(-c4cccs4)sc3n2)cc1C
→ -8.0%	-1.8%
CCOc1c(Br)cc(/C=C/C(=O)c2ccc(C#N)cc2)cc1OC
→ 3.4%	8.8%
CN1C(=O)c2ccccc2Sc2ccc(NC(=O)COc3ccc(Cl)cc3)cc21
→ ?	?
O=C(CSc1nc(Cl)nc2nc[nH]c12)Nc1ccccc1F
→ -7.0%	3.6%
Nc1c(-c2nc(-c3ccccc3Cl)no2)nnn1-c1ccccc1F
→ ?	-19.3%
CN(C)[C@@H]1C(=O)C(C(N)=O)=C(O)[C@@]2(O)C(=O)C3=C(O)c4c(O)cccc4C[C@H]3C[C@@H]12
→ -12.0%	-20.6%
COc1ccccc1C1CC(=O)Nc2nc(-c3ccccc3)[nH]c(=O)c21 (stereo unspecified)
→ -6.6%	-6.1%
Cc1ccc(OCCCSc2nc(-c3ccc(C(C)(C)C)cc3)nc3cc(=O)[nH]n23)cc1C
→ -13.2%	-15.0%
CC(C)NC(=O)CCC(=O)c1ccc2c(c1)CCC2
→ 14.2%	5.7%
CCC1CN(C(=O)NCc2ccc(C)cc2)c2ccccc2O1 (stereo unspecified)
→ 4.7%	1.2%
COc1ccc(C)cc1S(=O)(=O)Nc1ccc(Nc2cc(N3CCCCC3)nc(C)n2)cc1
→ 42.7%[activator]	?

Record cards, as listed above. Screens in order: 2A Renilla	StopGo FLuc
`COC(=O)C1=C(N)N(c2ccccc2C(F)(F)F)C2=C(C(=O)CC(C)(C)C2)C1c1cccnc1` (stereo unspecified) reads -3.5%	4.1%
`Cc1ccc(Nc2nc(Nc3ccc(C)c(C)c3)nc(N3CCOCC3)n2)cc1C` reads -3.5%	-29.1%

(list continues)
Values run as follows: 2A Renilla	StopGo FLuc
C#Cc1cccc(NC(=O)CCC(=O)c2ccc3c(c2)CCC3)c1
→ -2.6%	17.9%
O=C(CCCc1c[nH]c2ccccc12)Nc1ccc2ccccc2c1
→ 1.8%	121.0%[activator]
CC(C)C(NS(=O)(=O)c1ccc2c(c1)oc(=O)n2C)C(=O)NCCc1ccccc1 (stereo unspecified)
→ -10.9%	-9.4%
COC(=O)CN1C(C(=O)c2ccccc2)=C(OC(=O)c2ccc(C)cc2)c2ccccc2S1(=O)=O
→ 0.0%	0.0%
COc1ccc(-c2nn(C)c(=O)c3ccccc23)cc1NC(=O)COc1ccccc1
→ 25.0%	15.7%
CCSc1nc2c(c(=O)[nH]c(=O)n2C)n1CCC(C)C
→ -0.2%	4.1%
Cc1oc2cc(OCC(=O)NCCCO)ccc2c(=O)c1Oc1ccccc1
→ -8.6%	-5.7%
O=C(c1cnn(-c2ccccc2)c1-n1cccc1)N1CCN(c2cccc(Cl)c2)CC1
→ -1.7%	0.1%
COc1cc(/C=C(\C#N)c2ccc(Cl)cc2)c(Br)cc1OCc1ccccc1
→ -3.8%	19.6%
CCOC(=O)C(C(C)=O)C(c1ccccc1)C(C(C)=O)C(=O)OCC (stereo unspecified)
→ 3.3%	5.1%
Cn1c(NCCO)nc2c(c1=O)C1(CCCC1)Cc1ccccc1-2
→ -21.9%	-17.7%

High-throughput results from PubChem.
